YB-1 expr inh = YB-1 expression inhibition | U2OS, qRT-PCR YB-1 vs CDIP delta delta Cp, 16 h; hits give high values; zero = DMSO, each unit about twofold | hit rate 0.37% among 30,000 | delta delta Cp (YB-1 minus CDIP) (concentration not given with the values);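 active = delta delta Cp rounded down to an integer at or above 3, about 3 SD of DMSO wells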;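 note: higher means less YB-1 transcript or more CDIP transcript relative to DMSO; stock transfer was 100 nL into about 100 µL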
MITF inhib = MITF inhibition | TRPM1 promoter luciferase, luminescence, 24 h | inhibition, % (no concentration beside the values) | hit rate 0.28% among 37,000 | AID 2240;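 active = most replicates at 85% or more, or half of them and the mean; inconclusive = half reach 85% but not the mean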;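 note: human melanocyte line stably carrying TRPM1 promoter luciferase reporter; 0% = vehicle wells and 100% = a positive control; the first replicate is given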
PD-1 reversal = reversal of PD-1 mediated T-cell inhibition; primary human CD4 T cells, PD-L1 beads, CellTiter-Glo 96 h; activation, % (test concentration not listed); 29,000 tested, under 10 active;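 active = replicate mean of 50% or more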;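 note: 0% = median vehicle wells and 100% = positive control; 100 nL library stock added to about 50 µL; numbers are from one replicate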
Shh pathway inh = blocks Sonic Hedgehog signaling. Shh-LIGHT2 Gli-luciferase reporter, 30 h. inhibition, % (concentration not given with the values). hit rate 2.1% among 22,000. AID 2313;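 active = replicate mean of 65% or more; inconclusive = mean lower but half the replicates past it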;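 note: pathway switched on by Shh-conditioned medium diluted 1 in 25 in low serum; 100 nL library stock added to about 40 µL; 0% = median of neutral wells and 100% = positive control level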
An asterisk follows results filed as active; ? = inconclusive; . = no result given; & = joins results of further samples. This is a subset; the hit share may differ from the screen's.

The line under a structure holds: YB-1 expr inh, Shh pathway inh, MITF inhib, PD-1 reversal
> C[C@@H]1CN([C@H](C)CO)C(=O)Cc2cc(NC(=O)Cc3ccccc3)ccc2O[C@H]1CN(C)Cc1ccc(-c2ccccc2)cc1
 : -1.3, -33, 1, 1.5
> C[C@H]1CN([C@@H](C)CO)C(=O)Cc2cc(NC(=O)Cc3cn(C)c4ccccc34)ccc2O[C@@H]1CN(C)S(=O)(=O)c1ccc(Cl)cc1
 : -0.45, ., 48, -3.4
> COc1ccc(C(Nc2ccccn2)c2ccc3ccc(C)nc3c2O)cc1C (stereo not drawn)
 : ., ., 38, -13
> O=C(COc1cccc(NC(=O)c2cccc([N+](=O)[O-])c2)c1)c1ccc(F)cc1
 : ., ., 19, -0.8
> COc1ccc(NC(=O)N(C)C[C@H]2Oc3c(NC(=O)c4cc(C)nn4C)cccc3C(=O)N([C@H](C)CO)C[C@@H]2C)cc1
 : 0.32, -8, -11, 2.9
> Cc1ccc([N+](=O)[O-])cc1NC(=O)CCn1cnc2ccccc2c1=O
 : ., ., -12, 2.0
> C[C@H](CO)N1C[C@H](C)[C@H](CN(C)C(=O)Nc2ccc(C(F)(F)F)cc2)Oc2c(NC(=O)NC3CCCCC3)cccc2C1=O
 : -0.062, 2, 8, -4.0
> CC(C)n1cnc2c(NCc3ccccc3)nc(NCCCO)nc21
 : 0.97, 52, 11, 2.4
> COc1ccc(C(=O)Nc2ccccc2C(=O)N2CCN(CCO)CC2)cc1
 : ., ., -26, 3.2
> COc1c(OC)c(O)c2c(=O)c(O)c(-c3ccccc3)oc2c1OC
 : -0.32, 14, -53, 1.0
> COc1ccc(NC(=O)N(C)C[C@@H]2Oc3c(NC(=O)NC(C)C)cccc3C(=O)N([C@H](C)CO)C[C@@H]2C)cc1
 : -0.39, 6, 3, 2.6
> CCC(Sc1ncccn1)C(=O)Nc1c(C)cccc1C (stereo not drawn)
 : ., ., -7, -0.8
> C[C@H](CO)N1C[C@H](C)[C@H](CN(C)S(=O)(=O)c2cccs2)Oc2ccc(NC(=O)C3CC3)cc2CC1=O
 : -1.2, 21, -21, -1.3
> Cc1ccc(S(=O)(=O)N(C)C[C@@H]2Oc3ccc(N(C)C)cc3CC(=O)N([C@@H](C)CO)C[C@@H]2C)cc1
 : 0.075, 15, 15, .
> Cc1ccc(N(CC(=O)NC2CCCC2)S(C)(=O)=O)cc1
 : ., ., -17, 1.3
> Cc1noc(C)c1NC(=O)Nc1cccc2c1O[C@@H](CN(C)S(=O)(=O)c1ccccc1)[C@@H](C)CN([C@@H](C)CO)C2=O
 : 0.43, -17, 2, 0.2
> CC(C)NC(=O)N(C)C[C@H]1Oc2ccc(N(C)C)cc2C(=O)N([C@@H](C)CO)C[C@@H]1C
 : 0.32, -37, -3, 1.2
> CC1(C)Cc2nc3sc4c(=O)n(CC(=O)NCCc5ccccc5)cnc4c3cc2CO1
 : ., ., 3, 1.1
> COc1ccc(N(CC(=O)Nc2ccc(F)c(F)c2)S(C)(=O)=O)cc1OC
 : ., ., -20, 0.9
> C[C@H]1CN([C@@H](C)CO)C(=O)Cc2cc(NS(=O)(=O)c3cccs3)ccc2O[C@H]1CN(C)Cc1ccncc1
 : 0.64, -18, -3, 0.8
> C[C@H]1CN([C@@H](C)CO)C(=O)c2cccc(NS(=O)(=O)c3ccc(F)cc3)c2O[C@@H]1CN(C)Cc1ccc(C(=O)Nc2ccccc2N)cc1
 : -0.26, ., 27, 0.6
> CCn1c(SCC(=O)Nc2ccccc2F)nnc1-c1ccccc1
 : ., ., -8, 1.3
> CNS(=O)(=O)c1cc(-c2nnc(Nc3ccc(NC(C)=O)cc3)c3ccccc23)ccc1C
 : ., ., -6, 4.6
> C[C@H](CO)N1C[C@H](C)[C@H](CN(C)Cc2ccccc2)Oc2ccc(NC(=O)CCC(F)(F)F)cc2CC1=O
 : 0.14, ?, -1, -0.6
> OCCN1CCN(CCCN2c3ccccc3Sc3ccc(C(F)(F)F)cc32)CC1
 : -0.061&-0.039, ?, 17&-26, .
> CC1CCc2c(sc3ncnc(SCC(=O)NCc4ccco4)c23)C1 (stereo not drawn)
 : ., ., -38, -5.7
> CC1(C)CC[C@]2(C(=O)O[C@@H]3O[C@H](CO)[C@@H](O)[C@H](O)[C@H]3O)CC[C@]3(C)C(=CCC4[C@@]5(C)CC[C@H](OC6O[C@H](CO)[C@@H](O)[C@H](O[C@@H]7O[C@H](CO)[C@@H](O)[C@H](O)[C@H]7O)[C@H]6O)C(C)(C)C5CC[C@]43C)[C@@H]2C1 (stereo partly drawn)
 : -0.0075, 26, ., .
> NC(=O)CSc1oc(-c2ccc(F)cc2)nc1S(=O)(=O)c1ccc(Br)cc1
 : ., ., -9, -1.2
> CSc1nc2cc(C)nn2c(-c2ccccc2Cl)c1C#N
 : 0.017, -10, -11, -0.2
> C[C@@H]1CN([C@H](C)CO)C(=O)Cc2cc(N(C)C)ccc2O[C@H]1CN(C)Cc1ccc2c(c1)OCO2
 : -0.26, -9, 3, .
> COc1ccc(/C=C/C(=O)OC2C(C)OC(OC3C4C=COC(OC5OC(CO)C(O)C(O)C5O)C4C4(CO)OC34)C(O)C2O)cc1 (stereo not drawn)
 : 1.9, -4, ., .
> COc1ccc(NC(=O)N(C)C[C@@H]2Oc3c(NC(=O)Nc4c(C)noc4C)cccc3C(=O)N([C@@H](C)CO)C[C@@H]2C)cc1
 : -0.11, -21, -7, 1.2
> C[C@@H]1CN([C@H](C)CO)C(=O)c2cc(NC(=O)Nc3ccc(C(F)(F)F)cc3)ccc2O[C@H]1CN(C)C(=O)Nc1ccc2c(c1)OCO2
 : -0.35, ., 0, 4.1
> C[C@@H]1CCCCO[C@H](CN(C)C(=O)Nc2ccc3c(c2)OCO3)[C@@H](C)CN([C@H](C)CO)C(=O)c2cc(NS(=O)(=O)c3cn(C)cn3)ccc2O1
 : -0.1, -15, -11, .
> CC(C)=CCc1c(-c2ccc(O)cc2O)oc2c(CC=C(C)C)c(O)cc(O)c2c1=O
 : -0.31, -9, 0, 1.0
> CCOC(NC(=O)Nc1ccc(Br)cc1)(C(F)(F)F)C(F)(F)F
 : -0.47, -30, -1, 1.4
> C[C@H](CO)N1C[C@H](C)[C@@H](CN(C)C(=O)Nc2ccccc2)Oc2ccc(NC(=O)Nc3ccc(C(F)(F)F)cc3)cc2C1=O
 : -0.63, -30, -1, -3.0
> C[C@@H]1CN([C@@H](C)CO)C(=O)c2cc(NS(=O)(=O)c3ccc(Cl)cc3)ccc2O[C@@H]1CN(C)Cc1ccccc1
 : -0.061, ., -2, .
> CC(=O)N/C(=C\c1ccc2ccccc2c1)C(=O)O
 : 0.011, -7, -26, 0.9
> CNC[C@H]1OCCCC[C@@H](C)Oc2ccc(NC(=O)Nc3cccc4ccccc34)cc2C(=O)N([C@H](C)CO)C[C@@H]1C
 : 0.16, -53, -6, -0.8
> C[C@H]1CN([C@@H](C)CO)C(=O)Cc2cc(NC(=O)C3CC3)ccc2O[C@@H]1CN(C)Cc1ccc(Cl)c(Cl)c1
 : 0.14, 48, -7, 0.2
> Cc1ccc(S(=O)(=O)Nc2cccc3c2O[C@H](CN(C)Cc2ccc(Cl)c(Cl)c2)[C@H](C)CN([C@@H](C)CO)C3=O)cc1
 : -0.026, 17, 9, .
> COc1ccc2cc([C@H](C)CO)ccc2c1
 : -0.073, -30, -7, .
> CN(C)c1ccc(-c2[nH]c(=S)[nH]c(=O)c2C#N)cc1
 : -0.45, -51, 19, -2.0
> c1ccc(COc2ccc(Oc3nc(N4CCOCC4)nc(N4CCOCC4)n3)nn2)cc1
 : ., ., -8, -3.5
> COc1ccc(NC(=O)N(C)C[C@H]2Oc3ccc(NC(=O)NC4CCCCC4)cc3C(=O)N([C@@H](C)CO)C[C@H]2C)cc1
 : -0.47, -25, -4, 0.9
> Cc1c(CCC(=O)O)c(=O)oc2cc(OCc3ccc(Br)cc3)ccc12
 : ., ., -30, -1.6
> C[C@H]1CN([C@@H](C)CO)C(=O)c2cc(NS(=O)(=O)c3ccccc3)ccc2O[C@@H]1CN(C)Cc1ccc(Oc2ccccc2)cc1
 : 0.53, 20, 19, -3.9
> O=c1c2ccccc2nc(/C=C/c2cc(Br)ccc2O)n1CCCO
 : ., ., 102*, -7.0
> C[C@@H]1CN([C@H](C)CO)C(=O)c2cccc(NS(=O)(=O)c3cccs3)c2O[C@@H]1CN(C)C
 : -0.25, -38, -3, 0.3

Molecules above containing two or more sulfur atoms:
The line under a structure holds: YB-1 expr inh, Shh pathway inh, MITF inhib, PD-1 reversal
> C[C@H](CO)N1C[C@H](C)[C@H](CN(C)S(=O)(=O)c2cccs2)Oc2ccc(NC(=O)C3CC3)cc2CC1=O
 : -1.2, 21, -21, -1.3
> C[C@H]1CN([C@@H](C)CO)C(=O)Cc2cc(NS(=O)(=O)c3cccs3)ccc2O[C@H]1CN(C)Cc1ccncc1
 : 0.64, -18, -3, 0.8
> CC1CCc2c(sc3ncnc(SCC(=O)NCc4ccco4)c23)C1 (stereo not drawn)
 : ., ., -38, -5.7
> NC(=O)CSc1oc(-c2ccc(F)cc2)nc1S(=O)(=O)c1ccc(Br)cc1
 : ., ., -9, -1.2
> C[C@@H]1CN([C@H](C)CO)C(=O)c2cccc(NS(=O)(=O)c3cccs3)c2O[C@@H]1CN(C)C
 : -0.25, -38, -3, 0.3

Further records follow:
The line under a structure holds: YB-1 expr inh, Shh pathway inh, MITF inhib, PD-1 reversal
> CC(C)NC(=O)N(C)C[C@@H]1Oc2ccc(NC(=O)CCN3CCOCC3)cc2C(=O)N([C@H](C)CO)C[C@@H]1C
 : -0.21, ., -1, -3.9
> COc1ccc(NC(=O)CN(c2cc(C)ccc2OC)S(C)(=O)=O)cc1Cl
 : ., ., -18, -0.2
> C=CCN1CCc2nc(N)sc2CC1
 : -0.5, 3, -11, .
> COc1ccc(NC(=O)Nc2ccc3c(c2)CC(=O)N([C@@H](C)CO)C[C@H](C)[C@H](CN(C)S(C)(=O)=O)O3)cc1
 : -0.5, 1, -3, -1.0
> COc1ccc(NC(=O)Nc2cccc3c2O[C@H](CN(C)C(=O)NC2CCCCC2)[C@H](C)CN([C@H](C)CO)C3=O)cc1
 : -0.5, -3, 1, 0.1
> COc1ccc(S(=O)(=O)Nc2cccc3c2O[C@@H](CN(C)S(C)(=O)=O)[C@@H](C)CN([C@@H](C)CO)C3=O)cc1
 : -0.15, -14, -2, -1.2
> C[C@@H]1CN([C@H](C)CO)C(=O)c2cccc(NS(=O)(=O)c3ccccc3)c2O[C@H]1CN(C)C(=O)NC1CCCCC1
 : 0.1, -12, -6, 1.2
> COC(=O)C(O)(c1ccc(NC(=S)NC(=O)c2ccc(Cl)cc2Cl)c(OC)c1)C(F)(F)F (stereo not drawn)
 : ., ., 44, -5.9
> COc1cc(-c2coc3cc(OCc4ccccc4)c(OC)c(O)c3c2=O)cc(O)c1OC
 : 0.2, 31, -31, .
> O=C(CSc1nc2ccccc2s1)Nc1ccc(N2CCOCC2)c(Cl)c1
 : ., ., 28, 1.5
> C[C@H]1CN([C@@H](C)CO)C(=O)c2cccc(NC(=O)NC3CCCCC3)c2O[C@@H]1CN(C)C(=O)Nc1ccc(F)cc1
 : 0.019, 9, 2, -0.3
> Cc1c(C#N)c(Sc2n[nH]c(=O)n2C2CCCCC2)nc2ccccc12
 : -0.038, 28, 4, 3.4
> COc1ccc(S(=O)(=O)Nc2ccc3c(c2)C(=O)N([C@@H](C)CO)C[C@@H](C)[C@@H](CN(C)C(=O)Nc2ccc(F)cc2)O3)cc1
 : -0.15, ., 2, -0.5
> C[C@@H]1CN([C@H](C)CO)C(=O)c2cccc(NC(=O)Nc3ccc(F)cc3)c2O[C@@H]1CN(C)Cc1ccc(Oc2ccccc2)cc1
 : 0.51, 7, -3, .
> Cc1noc(C)c1S(=O)(=O)Nc1ccc2c(c1)C(=O)N([C@H](C)CO)C[C@@H](C)[C@@H](CN(C)S(=O)(=O)c1c(C)noc1C)O2
 : -0.53, -1, 7, -0.8
> COc1cc(C2OC(c3ccc(O)c(OC)c3)C(C)(O)C2C)ccc1O (stereo not drawn)
 : -1.4, -417, 61, -6.6
> C[C@@H]1CCCCO[C@@H](CN(C)C(=O)Nc2ccc(C(F)(F)F)cc2)[C@@H](C)CN([C@H](C)CO)C(=O)c2cc(NC(=O)CCC(F)(F)F)ccc2O1
 : 0.18, 1, 3, .
> CC(C)NC(=O)N(C)C[C@@H]1Oc2ccc(NC(=O)Cc3cn(C)c4ccccc34)cc2CC(=O)N([C@@H](C)CO)C[C@@H]1C
 : -0.13, ., 7, 0.1
> Cc1ccc(S(=O)(=O)Nc2ccc3c(c2)C(=O)N([C@@H](C)CO)C[C@@H](C)[C@H](CN(C)S(C)(=O)=O)O3)cc1
 : 0.21, ., -3, 2.1
> COc1ccc(CN(C)C[C@@H]2OCCCC[C@@H](C)Oc3ccc(NS(=O)(=O)c4cn(C)cn4)cc3C(=O)N([C@H](C)CO)C[C@@H]2C)cc1
 : 0.067, 15, -2, .
> Cc1noc(C)c1S(=O)(=O)Nc1ccc2c(c1)C(=O)N([C@H](C)CO)C[C@H](C)[C@@H](CN(C)S(=O)(=O)c1ccc(F)cc1)OCCCC[C@@H](C)O2
 : -0.037, 0, 17, -4.8

High-throughput results: PubChem BioAssay, Broad Institute
